# Source: PubChem
# D2 agonist – Beta-Arrestin HTS for Positive Allosteric Modulators of the Human D2 Dopamine Receptor: Agonists; actives 0.084% (n = 360,000); activation, % (no concentration beside the values); AID 624465, 2012; D(2) dopamine receptor (Homo sapiens), P14416; DiscoveRx PathHunter D2 beta-arrestin, luminescence, 90 min; 100% = 57 uM dopamine signal; in the data active = activation above about 40%; inconclusive = about 15% to 40%; inactive = below about 15%; note: compound concentration not given in the record; the text of the record calls up to 30% inactive
# Target sequence (P14416 whole entry, looked up): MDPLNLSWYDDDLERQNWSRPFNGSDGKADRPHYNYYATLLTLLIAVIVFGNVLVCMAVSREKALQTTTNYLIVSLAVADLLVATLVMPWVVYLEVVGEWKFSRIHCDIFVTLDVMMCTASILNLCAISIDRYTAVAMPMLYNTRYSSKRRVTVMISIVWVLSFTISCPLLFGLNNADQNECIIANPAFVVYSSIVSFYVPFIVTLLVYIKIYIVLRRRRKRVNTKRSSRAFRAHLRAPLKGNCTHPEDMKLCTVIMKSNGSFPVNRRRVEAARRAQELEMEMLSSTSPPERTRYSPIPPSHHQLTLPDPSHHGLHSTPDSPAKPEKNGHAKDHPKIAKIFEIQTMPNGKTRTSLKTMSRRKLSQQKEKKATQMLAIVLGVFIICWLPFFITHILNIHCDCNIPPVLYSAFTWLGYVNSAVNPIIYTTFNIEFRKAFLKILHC
#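 Agonist mode: compounds alone added to overnight-plated D2 PathHunter cells for 90 min at 37 C, with 57 uM final dopamine (EC100) defining full response. Beta-arrestin recruitment detected by chemiluminescent reagent, read after 1 h at ambient temperature.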
# TRPML1 inh – qHTS for Inhibitors of the Human Mucolipin Transient Receptor Potential 1 (TRPML1) | TRPML1-inducible cells, Ca2+ dye fluorescence, FDSS; active compounds read low; inhibition of EC80 agonist-evoked calcium signal | activity change, negative = inhibition, % (test concentration not listed) | actives 0.02% (n = 390,000) | AID 624415, 2012; in the data active means activity change below about -50%; inconclusive means about -30% to -50%; inactive means above about -30%;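 note: stimulus is agonist 54-4 at its EC80 concentration; % is set by controls: 0 for no effect and ±100 for the full control effect; compound concentration not given in the record; the text of the record puts the active cut at -80%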
# Target sequence (Q9GZU1 whole entry, looked up): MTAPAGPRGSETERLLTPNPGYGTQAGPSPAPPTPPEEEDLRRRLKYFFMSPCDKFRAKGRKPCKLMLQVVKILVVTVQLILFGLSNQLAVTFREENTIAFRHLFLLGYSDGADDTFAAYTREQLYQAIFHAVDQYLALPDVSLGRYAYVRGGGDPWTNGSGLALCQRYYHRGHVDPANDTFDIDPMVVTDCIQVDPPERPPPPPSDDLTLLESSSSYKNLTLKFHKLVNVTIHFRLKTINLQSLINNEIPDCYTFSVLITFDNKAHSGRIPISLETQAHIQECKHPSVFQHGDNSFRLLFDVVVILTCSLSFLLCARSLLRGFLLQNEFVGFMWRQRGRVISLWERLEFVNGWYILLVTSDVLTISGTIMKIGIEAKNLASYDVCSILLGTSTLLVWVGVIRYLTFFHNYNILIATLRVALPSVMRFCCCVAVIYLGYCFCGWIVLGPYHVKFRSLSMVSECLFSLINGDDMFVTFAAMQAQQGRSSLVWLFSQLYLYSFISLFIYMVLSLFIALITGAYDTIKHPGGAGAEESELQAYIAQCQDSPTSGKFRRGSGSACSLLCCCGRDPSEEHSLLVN
#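 Tet-induced TRPML1-DL cells loaded with Ca8 no-wash calcium dye were read kinetically on FDSS. Compound addition was followed by EC80 agonist 54-4 (4 uM final); inhibition was read over 110 s.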
# PINK1 modulator – A Quantitative High throughput Screen to Identify Chemical Modulators of PINK1 Expression | PINK1 immunofluorescence, high-content cytometry, 24 h | Potency, µM (highest dose often 76.6 µM), without a hit: at the top dose activation (PINK1 increase), most hits filed as activators | actives 0.2% (n = 410,000); active = well fitted activation curve with a large enough effect; inconclusive = small, poorly fitted or top-dose-only effect; inactive = flat fitted curve, though single readings scatter; cell line not stated here;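 note: potency is the fitted concentration of half-maximal effect; % of control where 0% means no effect; nearly all actives have a fitted effect of over 65% in size; a mitochondrial uncoupler was the plate control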
#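 PINK1 protein, normally rapidly degraded, was detected by immunofluorescence after 24 hour compound treatment of a stable cell line. Titration data (5 concentrations) came from laser-scanning cytometry, with CCCP-treated wells as controls.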
# TRPML1 ag – qHTS for Agonists of the Human Mucolipin Transient Receptor Potential 1 (TRPML1). Mucolipin-1 (Homo sapiens), Q9GZU1. TRPML1-expressing cells, Ca2+ dye fluorescence, FDSS; host cell line not named in the record; reference of the full effect not given here. activation, % (test concentration not listed). actives 0.12% (n = 410,000); in the data active = activation above about 50%; inconclusive = about 30% to 50%; inactive = below about 30%; note: 0% is about no effect; the text of the record puts the active cut at 80%
#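 Agonist activity was taken from a 110 s kinetic Ca2+ dye read on the FDSS after pinning compounds onto TRPML1-DL cells. The cells were seeded at 1,500/well with Tet inducer, incubated about 16 h, then dye-loaded at room temperature.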
# D2 potentiator – Beta-Arrestin HTS for Positive Allosteric Modulators of the Human D2 Dopamine Receptor: Potentiators; D(2) dopamine receptor (Homo sapiens), P14416; DiscoveRx D2 beta-arrestin cells, luminescence, 90 min; 100% = 57 uM dopamine signal; AID 624464, 2012; potentiation, % (test concentration not listed); actives 0.23% (n = 360,000); active = potentiation of 50% or more; inconclusive = 30% to 50%; inactive = 30% or less;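 note: compound concentration not given in the record; tested on top of an EC20 dose of dopamine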
#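 PathHunter D2 cells, attached overnight at 37 deg C, received compound in DMSO plus dopamine at EC20 (50 nM final) for 90 min at 37 deg C. Beta-arrestin recruitment was read as luminescence after 1 h with detection reagent at ambient temperature.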
# Six1-Eya2 inh – qHTS Assay for Inhibitors of the Six1/Eya2 Interaction. Homeobox protein SIX1 (Homo sapiens) + Protein phosphatase EYA2 (Homo sapiens), …. AlphaScreen GST-Six1/His-Eya2 binding, biochemical; active compounds read low; control for the full effect not named in the record. activity change, % (test concentration not listed). actives 0.56% (n = 360,000). AID 651725, 2012; in the data active = activity change below about -65%; inconclusive = about -30% to -65%; inactive = above about -30%; note: % is set by controls: 0 for no effect and ±100 for the full control effect
#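 Homogeneous AlphaScreen proximity assay pairing GST-Six1 with His-tagged Eya2 (added as 5X mix: 250 nM and 500 nM) in 50 mM Tris pH 8.0, 300 mM NaCl, 1 mM TCEP. Glutathione donor and nickel acceptor beads; 1 h, 37 °C, dark.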
# * = called active by the depositor; ? = inconclusive; . = no result given; & = joins results of further samples; [ ] = remark or other dose.
SMILES,D2 agonist,TRPML1 inh,PINK1 modulator,TRPML1 ag,D2 potentiator,Six1-Eya2 inh
O=C(Nc1ccc(N2CCN(C(=O)c3ccco3)CC2)c(Cl)c1)c1c(F)c(F)c(F)c(F)c1F,1.9,21,-1.9%,-0.3,6,0
CCCc1nc2ccc(NC(C)=O)cc2c(=O)n1Cc1ccc(Cl)cc1,-5.7,10,4.3%,4.1,0,1
CC(C)c1ccccc1OCC(=O)Nc1cc(S(=O)(=O)N2CCOCC2)ccc1N1CCCC1,-0.3,33,-1.2%,4.2,-15,-15
O=C(CCN1CCN(CCO)CC1)Nc1cccc(Br)c1,-5.0,1,-0.7%,-0.1,-10,-4
O=C(NCc1cccnc1)c1ccc(COc2ccccc2Cl)o1,-3.3,-2,1.2%,-0.5,-10,1
Cc1ccc(S(=O)(=O)N2CCC(C(=O)OCC(=O)NCCc3ccccc3)CC2)cc1C,-7.1,-5,1.7%,0.6,-13,-7
COc1ccc(CNC(=O)Cc2c(C)c3c(cc(C)c4c(C)coc43)oc2=O)cc1,.,-11,0.7%,-0.7,.,.
Cc1cccc(C(=O)Nc2ccc(C(=O)N/N=C/c3ccc(C)o3)cc2)c1,-1.6,4,1.1%,-0.4,-8,-19
CC(c1ccccc1C(O)(c1ccccc1)c1ccccc1)N(C)C (stereo not given),1.9,12,-0.2%,21,-14,-2
CCOC(=O)c1[nH]c2ccccc2c1NC(=O)c1cc(OC)c(OC)c(OC)c1,-1.0,12,-5.9%[38.3 µM],-0.5,-4,-1
CCCCC(Sc1nc2cc3c(cc2c(=O)n1CCCC(=O)NCc1ccc(OC)cc1)OCO3)C(=O)OCC (stereo not given),.,9,2.0%,1.3,.,.
Cc1ccc(S(=O)(=O)CCC(=O)OCC(=O)N2CCN(S(=O)(=O)c3ccc(Cl)cc3)CC2)cc1,-1.4,-4,-0.6%,-0.5,-22,6
CCn1c(CNC(=O)c2ccccc2F)nnc1SCC(=O)Nc1nncs1,-0.7,3,0.5%,-0.1,-2,-3
CCn1nc(C)cc1C(=O)N1CCCC(N2CCN(Cc3ccc4c(c3)OCO4)CC2)C1 (stereo not given),0.1,1,-0.8%,-0.3,-17,4
Cc1cccc(NC(=O)COC(=O)CCc2ccccc2)c1C,-4.7,8,-0.2%,-0.8,-30,-13
Cc1nc(=S)c2c([nH]1)-c1ccccc1CC21CCCCC1,-0.2,-5,3.9%,0.3,-2,-3
CCO[C@H]1OC(C(=O)Nc2ccccc2)=C[C@@H](C)[C@@H]1CCCO,2.1,0,0.2%,-1.0,-6,7
Cc1ccc(S(=O)(=O)N2CCOCC2)cc1NC(=O)CN1CCN(c2ccc(O)cc2)CC1,13,-12,-1.1%,-0.3,7,-16
Cc1ccc(S(=O)(=O)Nc2ccc3c(c2)c2c(n3S(=O)(=O)c3ccc(C)cc3)CCCC2=O)cc1,3.2,-3,1.3%,2.6,-11,6
O=C(NCCOCCn1c(=O)oc2ccccc21)Nc1ccc(F)cc1F,.,1,2.5%,-0.8,.,.

# One compound at a time (already shown):
# Results for CC(c1ccccc1C(O)(c1ccccc1)c1ccccc1)N(C)C (stereo not given) : D2 agonist: 1.9; TRPML1 inh: 12; PINK1 modulator: -0.2%; TRPML1 ag: 21; D2 potentiator: -14; Six1-Eya2 inh: -2
# Results for O=C(NCCOCCn1c(=O)oc2ccccc21)Nc1ccc(F)cc1F : D2 agonist: .; TRPML1 inh: 1; PINK1 modulator: 2.5%; TRPML1 ag: -0.8; D2 potentiator: .; Six1-Eya2 inh: .

# (continued)
SMILES,D2 agonist,TRPML1 inh,PINK1 modulator,TRPML1 ag,D2 potentiator,Six1-Eya2 inh
CN(C)c1ccc(NC(=O)CSc2nc(C3CC3)nc3ccccc23)cc1,1.6,-3,5.0%,0.0,-5,0
O=C(NNC(=O)C1CCN(S(=O)(=O)c2ccccc2)CC1)c1ccccc1O,5.8,24,0.6%,0.4,-5,-9
CC12CC3CC(C)(C1)CC(C(=O)NC1=NCCS1)(C3)C2,-2.5,-5,6.5%,2.2,-7,21
O=C(Cn1c(=O)nc(-c2ccccc2F)c2cc(Cl)ccc21)NCCCc1ccccc1,.,59,0.8%,-1.0,.,.
CC1(C(=O)NCc2ccccc2)CCC(=O)N1CC(F)(F)F (stereo not given),-2.8,.,0.0%,0.2,-4,0
C#CCOCCOCCOCCNc1nc(N2CCOCC2)nc(N2CCN(C(=O)CCCCCCCCCCNC(=O)[C@H](CO)n3cc(CCCSC)nn3)CC2)n1,5.7,3,3.0%,-0.4,4,-9
CCN1CCN(C(=O)c2cc(COc3ccc(F)cc3F)on2)[C@@H](C)C1=O,2.5,4,-0.4%,-0.1,-10,0
CC(NC(=O)COc1ccccc1Cl)c1ccccc1 (stereo not given),-5.6,-4,-0.7%,2.4,-10,21
CCCN(C(=O)CCCSc1nc2ccccc2[nH]1)c1c(N)n(Cc2ccccc2)c(=O)[nH]c1=O,-6.3,9,-1.1%,0.0,-24,17
COc1ccc(C(CC(=O)NC(C)c2ccc(-c3ccccc3)cc2)NC(C)=O)cc1 (stereo not given),-10,17,?,-1.0,-12,17

# Structures shown so far that have an aryl methoxy group (4):
SMILES,D2 agonist,TRPML1 inh,PINK1 modulator,TRPML1 ag,D2 potentiator,Six1-Eya2 inh
COc1ccc(CNC(=O)Cc2c(C)c3c(cc(C)c4c(C)coc43)oc2=O)cc1,.,-11,0.7%,-0.7,.,.
CCOC(=O)c1[nH]c2ccccc2c1NC(=O)c1cc(OC)c(OC)c(OC)c1,-1.0,12,-5.9%[38.3 µM],-0.5,-4,-1
CCCCC(Sc1nc2cc3c(cc2c(=O)n1CCCC(=O)NCc1ccc(OC)cc1)OCO3)C(=O)OCC (stereo not given),.,9,2.0%,1.3,.,.
COc1ccc(C(CC(=O)NC(C)c2ccc(-c3ccccc3)cc2)NC(C)=O)cc1 (stereo not given),-10,17,?,-1.0,-12,17

# (cont.)
SMILES,D2 agonist,TRPML1 inh,PINK1 modulator,TRPML1 ag,D2 potentiator,Six1-Eya2 inh
O=C(CCc1nnc(CCCCc2ccccc2)o1)NCCCc1cccnc1,-3.0,-6,0.4%,-1.9,-5,1
Cc1ccc(C(c2nnnn2CS(=O)(=O)c2ccc(C)cc2)N2CCC(C(N)=O)CC2)cc1 (stereo not given),-2.8,2,-0.1%,-0.5,-6,-2
OC(COc1ccc(Cl)cc1)CN1CCN(c2ccccc2)CC1 (stereo not given),1.9,2,11%,1.8,-16,-22
COCc1cc(C)nc(SCc2ccc(Br)cc2)c1C#N,-4.4,18,6.8%,3.1,-7,52
Cc1sc2ncnc(Sc3ccccc3C(=O)Nc3ccc(C#N)cc3)c2c1C,-1.8,-7,-0.1%,0.2,-13,-20
CCc1ccccc1NC(=O)C1=CC(c2ccc(OC)c(OC)c2)=NS(=O)(=O)N1C,-4.3,9&-14,3.6%&-1.7%,-0.2&-0.1,-4,3
Cc1occc1C(=O)N/N=C/c1ccccc1[N+](=O)[O-],-2.3,1,-0.6%,0.0,-2,-11
CCc1cc2cc3c(cc2nc1SCC(=O)Nc1cc(C)on1)OCO3,-1.1,15,-0.8%,-0.2,-8,6
Cc1ccc(CN2CC(C(=O)NCCCn3nc(C)cc3C)CC2=O)cc1 (stereo not given),-5.4,-11,-5.6%,0.9,-17,3
O=C(Nc1cccc(Cl)c1N1CCOCC1)c1cc([N+](=O)[O-])ccc1N1CCOCC1,-3.6,9,1.0%,0.2,-1,-17
COCc1ccc(-c2ccc3c(c2)c(C#Cc2ccsc2)c(-c2cc(OC)cc(OC)c2)n3C)cc1,-0.9,-6,-0.7%,-0.8,-4,6
COC(=O)c1sc(NC(=O)CSc2nncs2)c(C(=O)OC)c1C,0.4,-16,-2.3%,4.7,-16,-4
Cc1sc2nc(C(C)(C)C)oc(=O)c2c1C,-0.6,-7,1.2%[38.3 µM],0.5,-8,4
Cc1ccc(NS(=O)(=O)c2cccc(C(=O)NCC3(N(C)C)CCCCC3)c2)cc1,1.0,-7,-0.3%,3.0,-10,-5
CC(C)Oc1ccc(C(=O)NCC(=O)O)cc1,-2.0,20,4.7%,0.4,1,1
CC(C)Cn1c(CN2CCN(c3cccc(Cl)c3)CC2)nc2c1c(=O)[nH]c(=O)n2C,.,72,3.4%,-0.1,.,.
COCCc1nn2c(=O)cc(COC(=O)c3ccc(OC)c(OC)c3)nc2s1,.,-11,-0.9%,0.3,.,.
CCCn1c(=O)c2sccc2n2c(CCCC(=O)Nc3ccc(Oc4ccc(Cl)cc4)cc3)nnc12,.,7,-0.4%,0.1,.,.
Nc1nc(NCc2ccco2)nc(Nc2cccc(F)c2)c1[N+](=O)[O-],-1.6,9,0.5%,0.1,-9,-5
C/C(=N\NC(=O)Cc1cccn1C)c1ccc([N+](=O)[O-])cc1,3.3,-12,-0.3%,0.4,1,-4
CCCN(c1ccccc1CC)S(=O)(=O)c1ccc2c(c1)CC(C)N2C(=O)C1CC1 (stereo not given),.,18,7.9%,1.0,.,.
COc1ccc(C(C)NC(=O)c2ccoc2C)cc1OC (stereo not given),-1.2,11,7.4%[38.3 µM],-0.4,-9,1
O=C(Nc1ccn(CCCN2CCN(Cc3cccc4ccccc34)CC2)c(=O)n1)OCc1ccccc1,-8.6,-1,0.5%,-0.4,-11,-13
CCN(CC(=O)Nc1c(F)cccc1F)C(=O)c1ccc(NC(=O)CC2SC(N3CCCC3)=NC2=O)cc1 (stereo not given),-3.2,32,-0.6%,-0.8,-11,-3
O=C(Nc1nc2c(s1)CCCC2=O)c1cnccn1,-1.6,-7,13%[38.3 µM],-0.1,-7,-2
CCN1CCN(c2c(C=O)c(Cl)nc3ccc(OC)cc23)CC1,-1.0,3,-1.1%,-0.5,-8,0
COC(=O)c1ccc(NC(=O)CCN2C(=O)NC(C)(C)C2=O)cc1,4.0,-4,0.5%,-0.6,-3,-5
CCCCN(CC)CCNC(=O)CN(C)S(=O)(=O)c1ccc2c(c1)c(=O)n(C)c(=O)n2C,-2.2,4,0.6%,0.2,-9,-6
O=C(O)c1ccc(/C=N/NC(=O)c2ccc(Br)cc2)cc1,-0.6,-1,1.6%,0.3,-7,3
Cc1sc2c(c1C)c(=O)n(CCc1ccccc1)c(=O)n2Cc1ccccc1Cl,.,-22,1.9%,4.3,.,.
COc1ccc(-c2nc(-c3ccncc3)no2)c(OC)c1,1.1,.,-0.2%,.,-14,11
COc1ccc(NC(=O)ON=C2c3ccccc3-c3ccccc32)cc1,-3.3,6,-2.6%,0.6,-6,2
CN(C)c1ccc(/C=N\NC(=O)c2csnn2)cc1,-1.8,-2,-1.3%,-0.2,-7,-3
COc1ccc(N(C(C)C(=O)N/N=C/c2cccnc2)S(C)(=O)=O)cc1 (stereo not given),-1.1,3,0.4%,-0.1,-3,2
Oc1ccccc1C1=Nc2ccccc2N=C(c2cccs2)C1,-3.7,-4,3.9%[38.3 µM],-0.2,-12,24
